Compound activity (PubChem BioAssay)
Bfl-1 A1 inh = inhibitors of the anti-apoptotic protein A1, read as caspase activation; MEF A1-2A-BIM cells, Caspase-Glo 3/7 luminescence, 3 h; percent of clofoctol response, vehicle zero; caspase activation, % (test concentration not listed); 330,000 tested, 0.066% active; AID 2462;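 active = over half of replicate activation scores above 10%, or exactly half above 10 with the replicate mean above 10; inconclusive = replicate mean below 10 yet half the replicates above 10; inactive = over half of replicates below 10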;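 note: wells of about 30 µL received 50 nL stock; many hits fall short of the cut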
Calb FLC = affects C. albicans growth with fluconazole; C. albicans CaCi-2 (fluconazole-resistant clinical isolate) + fluconazole, Alamar Blue growth, 48 h; growth inhibition, % (concentration not given with the values); 300,000 tested, 0.57% active; AID 1979;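 active = most replicates above 75%; inconclusive = exactly half above 75%; inactive = most below 75%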;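 note: all wells also contain fluconazole at 8 µg/ml as a sub-toxic cotreatment; 0% = median of DMSO wells and 100% = median of geldanamycin control wells; wells of about 8 µL received 7.5 nL stock; the first replicate is given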
Beta2AR agonist = human beta-2 adrenergic receptor agonism by FAP. P07550. Am2.2-beta2AR cells, FAP receptor internalization, flow cytometry; reference of the scale not given here. response, % (concentration not given with the values). 340,000 tested, 0.43% active. AID 504454;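 active = response above a set limit, near 3 SD of response in nonfluorescent compounds, cut at about 42% in these data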;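 note: stock transfer was 100 nL into about 11 µL; a reference agonist was the positive control; negative values mostly stem from fluorescent compounds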
Beta cell apopt = blocks beta cell apoptosis; 300,000 tested, 0.8% active; INS-1E cytokine-induced death, ATP luminescence, 48 h; percent of positive-control rescue, neutral wells zero; AID 435005; protection from apoptosis, % (no concentration beside the values);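 active = all replicates at 75% or more, or half of them and the mean; inconclusive = half reach 75% but not the mean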;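 note: 0% = cytokine-treated negative control wells and 100% = positive control rescue; higher means more ATP so stronger rescue from cytokine killing; wells of about 40 µL received 100 nL stock; the first replicate is given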
T cruzi repl = blocks replication of Trypanosoma cruzi | T. cruzi beta-gal in NIH3T3, luminescence, 90 h | inhibition, % (test concentration not listed) | 300,000 tested, 1.4% active | AID 1885;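 active = mean inhibition across valid replicates above about 55%, limit read from the data; inconclusive = mean below that limit but half or more replicates reach it; inactive = mean below it, under half of replicates reach it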;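 note: signal also drops with host cell toxicity which is not excluded here; 0% = plate median of DMSO wells and 100% = zero luminescence signal; higher percent means less beta-gal luminescence so fewer parasites; stock transfer was 50 nL into about 50 µL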
ALR H2O2 inh = human ALR oxidase inhibition via reduced H2O2. P55789. purified ALR, DTT oxidation, H2O2 HRP-luminol luminescence. inhibition, % (concentration not given with the values). 290,000 tested, 3.8% active. AID 485317;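 active = mean and each replicate at 75% or more; inconclusive = only one of the two met; inactive = neither met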;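 note: stock transfer was 7.5 nL into about 7.5 µL; 0% = neutral wells and 100% = wells with inactivated enzyme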
LANA-H2B inh = blocks KSHV LANA binding to histone H2A/H2B. AID 2629. cell-free LANA-H2A/H2B peptide, fluorescence polarization. 320,000 tested, 0.6% active. inhibition, % (no concentration beside the values); in the data active = inhibition mostly above about 10%, no sharp cut-off; inactive = mostly below about 6.7%;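 note: stock transfer was 7.5 nL into about 10 µL; 0% = median of vehicle wells and 100% = median of positive control wells; one replicate is shown; the record names a cut of 25% in any replicate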
Target sequence (Q9QR71 whole entry, looked up): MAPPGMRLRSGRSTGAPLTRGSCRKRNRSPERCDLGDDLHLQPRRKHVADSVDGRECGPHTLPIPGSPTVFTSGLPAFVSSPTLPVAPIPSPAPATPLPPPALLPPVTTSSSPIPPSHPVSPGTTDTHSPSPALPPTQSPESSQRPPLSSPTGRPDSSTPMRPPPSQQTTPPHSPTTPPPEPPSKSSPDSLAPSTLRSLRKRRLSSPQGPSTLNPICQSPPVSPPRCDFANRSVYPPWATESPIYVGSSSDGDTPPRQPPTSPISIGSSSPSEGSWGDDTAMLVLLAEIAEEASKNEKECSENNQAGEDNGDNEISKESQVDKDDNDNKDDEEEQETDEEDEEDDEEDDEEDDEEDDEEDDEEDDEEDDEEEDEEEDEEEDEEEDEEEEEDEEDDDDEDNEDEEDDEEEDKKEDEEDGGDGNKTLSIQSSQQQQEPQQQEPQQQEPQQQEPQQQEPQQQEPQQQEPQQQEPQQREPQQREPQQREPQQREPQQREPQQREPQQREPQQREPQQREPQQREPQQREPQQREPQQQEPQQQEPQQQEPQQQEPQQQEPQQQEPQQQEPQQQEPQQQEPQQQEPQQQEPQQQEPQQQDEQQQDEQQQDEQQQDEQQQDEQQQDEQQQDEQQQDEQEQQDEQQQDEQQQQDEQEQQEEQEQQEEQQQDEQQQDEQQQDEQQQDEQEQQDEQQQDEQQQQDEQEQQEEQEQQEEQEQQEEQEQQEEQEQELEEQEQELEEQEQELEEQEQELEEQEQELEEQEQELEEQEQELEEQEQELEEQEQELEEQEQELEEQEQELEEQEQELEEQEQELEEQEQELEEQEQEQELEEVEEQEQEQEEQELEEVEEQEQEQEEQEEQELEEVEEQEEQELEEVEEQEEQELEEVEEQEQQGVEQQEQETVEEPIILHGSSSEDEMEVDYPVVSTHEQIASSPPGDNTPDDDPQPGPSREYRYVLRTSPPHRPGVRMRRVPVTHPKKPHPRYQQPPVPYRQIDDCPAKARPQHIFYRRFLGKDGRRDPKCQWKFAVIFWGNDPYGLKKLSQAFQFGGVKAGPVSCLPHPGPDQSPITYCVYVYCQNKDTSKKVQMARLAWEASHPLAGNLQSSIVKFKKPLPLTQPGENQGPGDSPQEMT
Ecoli rRNA inh = inhibitors of bacterial rRNA selective over humanized ribosomes. E. coli WT GFP vs humanized-ribosome RFP mutants, fluorescence, 24 h; hits give low values; DMSO median 0, no signal -100. GFP signal change (wild-type ribosome), % (no concentration beside the values). 350,000 tested, 1.6% active. AID 720706;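 active = significant combined selectivity score with lowered wild-type GFP, culture density cut under 30%, mutant RFP and density less affected; inactive = any of these conditions unmet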; note: one replicate is shown; some compounds called inactive have numbers as strong as hits
Ecoli rRNA inh OD600 = also measured in Ecoli rRNA inh; calls as there; OD600 change, %; measured here: OD600 growth;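 optical density of the mix in the first replicate; 0 = DMSO median and -100 = no signal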
Ecoli rRNA inh RFP = also measured in Ecoli rRNA inh; calls as there; RFP signal change, %; measured here: RFP humanized mutant strains;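 first replicate; 0 = DMSO median and -100 = no signal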
* marks the source's active call; other numbers are inactive results; ? = inconclusive; nt = no result given. Not all compounds are listed; rates above refer to the full screens.

SMILES	Bfl-1 A1 inh	Calb FLC	Beta2AR agonist	Beta cell apopt	T cruzi repl	ALR H2O2 inh	LANA-H2B inh	Ecoli rRNA inh	Ecoli rRNA inh OD600	Ecoli rRNA inh RFP
N/C(CC(=O)NC1CCCCC1)=N\OCC(=O)Nc1ccc(Cl)c(Cl)c1	0.0	-2	0	0	-7	-11	4.8	-14	-14	6.2
COc1ccc(S(=O)(=O)N(C)C)cc1NC(=O)CN1CCN(C(=O)C2CC2)CC1	-0.4	nt	-4	-1	nt	-4	2.4	3	11	-1.1
COC(=O)c1ccc(COc2ccc3c(c2)CCC3)o1	-1.4	-5	6	0	-4	nt	-1.8	-24*	7.7*	0.1*
O=C(Cn1nc(-c2ccccc2)ccc1=O)Nc1ccc(-n2cnnn2)cc1	0.2	-3	9	-6	4	-9	6.3	5	13	5.3
Cc1ccc(NC(=O)Cn2nnc3ccccc32)c(C)c1	0.4	-28	4	-16	14	1	-0.8	0	1	-3.9
O=C1CS/C(=N/N=C/c2cccs2)N1	1.2	2	-2	0	-14	-4	1.1	11	12	-2.1
COc1cc(C(=O)NCCOc2cc(C)ccc2C(C)C)cc(OC)c1OC	-1.0	13	-9	52	41	0	1.3	-5	-8	1.9
COc1ccc(CN2CCN(C(=O)CCC(=O)Nc3nnc(C(F)(F)F)s3)CC2)cc1F	-0.2	nt	-4	5	36	-2	0.5	3	-5	0.3
CCc1ccc(NC(=O)CNC(=O)c2nn(-c3ccc(OC)cc3)c(=O)c3ccccc23)cc1	0.5	-10	3	9	15	-3	-2.4	2	4	6.9
Cc1ccc(S(=O)(=O)N2CCOC2CNC(=O)C(=O)NCc2ccccn2)cc1 (stereo unspecified)	-0.2	3	1	-3	-11	-5	4.3	-4	4	-2.8
CC(=O)Nc1cccc(NC(=O)c2cc(-c3ccccn3)nc3ccc(Cl)cc23)c1	-0.9	-1	27	9	-27	-11	0.1	17	2	4.3
Cc1cc(Nc2ccc(Cl)cc2)n2ncnc2n1	4.0	0	-1	-8	-15	-5	-0.5	0	9	-1.3
COc1ccccc1C(=O)Nc1c2c(nn1-c1cccc(C)c1C)CS(=O)(=O)C2	-0.9	44	-10	nt	13	nt	4.9	nt	nt	nt
CC1CC(=O)Nc2ccccc2N1C(=O)COc1cc(Cl)ccc1Cl (stereo unspecified)	0.0	nt	-14	-4	nt	0	3.6	6	8	-0.5
COc1ccc(C(=O)NCC(=O)OCC(=O)N2CC(C)OC(C)C2)cc1OC (stereo unspecified)	0.0	nt	9	2	nt	nt	0.6	12	11	2.7
O=c1oc2cc(S(=O)(=O)NCCCO)ccc2c2ccc(S(=O)(=O)NCCCO)cc12	2.0	6	0	4	-13	2	-1.5	8	9	-3.6
CCC(C(=O)N1CCCC1)n1nc(C)c2c(C)n(-c3ccccc3)nc2c1=O (stereo unspecified)	-1.0	4	-6	-6	0	-8	1.9	8	10	2.9
COc1ccc(-c2cccc(C(=O)Nc3ccc(C)cc3)c2)cc1	-0.1	-2	0	-3	3	0	-1.2	nt	nt	nt
O=C(OCC(=O)N1CCN(C(=O)c2ccco2)CC1)c1cccc(O)c1	2.0	0	-1	1	0	7	-2.1	10	8	-1.3
Clc1ccc(SCc2cc(-c3ccccc3)no2)cc1	0.1	-5	-4	3	0	-7	1.0	nt	nt	nt
Cc1nc(N)sc1C(=O)OCC(C)C	1.0	9	13	-3	15	2	0.1	-12	7	-4.7
CCN(CCn1cccn1)Cc1nc(-c2ccc(C(=O)OC)cc2)no1	0.3	?	-3	nt	0	-13	0.6	3	-5	0.0
Cn1cc(Br)c(C(=O)Nc2sc3c(c2C(N)=O)CCCC3)n1	-0.6	-1	-2	-4	10	nt	2.9	1	-2	1.6
CCOC(=O)C(CC)(CC)C(=O)/C=C/c1ccc(OC)cc1	-0.4	15	11	nt	30	nt	-2.2	-15	-16	-2.2
CCOc1ccccc1NC(=O)CC1SC(=N)N(c2ccccc2)C1=O (stereo unspecified)	-0.1	3	nt	-7	8	-6	1.5	20	16	1.2
Further results follow.
SMILES	Bfl-1 A1 inh	Calb FLC	Beta2AR agonist	Beta cell apopt	T cruzi repl	ALR H2O2 inh	LANA-H2B inh	Ecoli rRNA inh	Ecoli rRNA inh OD600	Ecoli rRNA inh RFP
COc1ccc(C(=O)NC(=S)Nc2ccc3c4c(cccc24)CC3)cc1OC	0.3	31	24	-10	-25	-52	1.4	nt	nt	nt
Cn1c(=O)c2sccc2n2c(CCCC(=O)NCCc3ccccc3)nnc12	0.3	29	-11	0	-1	-1	-4.0	1	5	-3.2
COc1ccc(N=C2C(=O)N3CCCc4cccc2c43)cc1	0.7	-17	3	6	-20	99*	-4.9	-2	14	-1.2
Cc1ccc(NC(=O)N2CCCN(Cc3ccc(F)cc3)C2)cc1C	1.6	0	20	1	28	-15	5.4	nt	nt	nt
Cc1cc(C(=O)N2CCN(c3ncccn3)CC2)c(C)o1	0.0	5	-3	-5	-11	5	-3.2	nt	nt	nt
Cc1cnn(CCC(=O)NNC(=S)NCC(C)C)c1	1.0	4	-6	-2	-7	28	-0.1	nt	nt	nt
Cc1nn(Cc2ccc(Cl)cc2)c(C)c1NC(=O)Cn1nc([N+](=O)[O-])c(Cl)c1C	0.3	2	-2	nt	9	nt	1.9	nt	nt	nt
Cc1ccc2nc(C)c(C(=O)O)cc2c1	1.1	-14	1	1	-20	0	1.6	24	15	4.0
COc1ccc(S(=O)(=O)NC(C)c2ccccc2)cc1C(=O)N1CCCCC1 (stereo unspecified)	-0.4	8	-1	1	3	-3	1.8	1	-1	-0.4
O=C(Cc1c(F)cccc1Cl)N/N=C/c1cccs1	0.8	-5	-5	-2	6	-12	-5.9	5	7	-0.9
Cc1ccc(-n2c(SCC(=O)NCc3ccco3)nc3sc4c(c3c2=O)CC(C)(C)SC4)cc1	0.5	5	-7	0	14	-5	-9.2	nt	nt	nt
CC(C)NS(=O)(=O)c1ccc2c(c1)oc(=O)n2C	2.0	28	-2	1	-16	-4	-4.1	13	22	-1.4
COC(=O)c1c(-c2ccc3ccccc3c2)csc1NC(=O)Cc1ccc(OC)c(OC)c1	0.7	26	-1	-6	13	-7	-2.5	nt	nt	nt
CCC(=NC(CC)CO)C1=C(O)CC(C)(C)CC1=O (stereo unspecified)	-0.2	-1	7	-2	-24	0	10	5	3	12
Cn1cccc1/C=N/n1cnnc1	0.9	0	4	4	-21	-20	-5.5	nt	nt	nt
C#CCSc1nnc(-c2ccc([N+](=O)[O-])cc2)o1	-0.1	-11	1	1	-14	-5	5.8	4	4	-0.7
O=C(COc1ccc2ccccc2c1)N1CCN(C(=O)c2ccc([N+](=O)[O-])cc2)CC1	1.4	2	9	-5	43	-26	-4.4	-13	-12	3.0
CC(=O)N1N=C(C)CC1c1ccc(OCc2ccccc2)cc1 (stereo unspecified)	0.8	-4	4	-6	0	-5	-0.5	6	-9	-6.9
CC(C)(C)c1ccc(C(=O)N2CCN(C(=O)c3ccco3)CC2)cc1	0.5	1	-5	nt	-10	5	4.1	-5	-7	-0.7
CCNC(=O)c1ccc2c(c1)S(=O)(=O)c1ccccc1C2=O	0.0	3	-15	-1	-9	21	-1.3	nt	nt	nt
CCCNC(=O)COc1coc(CN2CCN(c3ccc(F)cc3)CC2)cc1=O	-1.8	1	-3	nt	-5	16	0.7	9	7	1.3
Cc1cc(Br)ccc1NC(=O)c1ccccc1-c1ccccc1	0.8	-29	-1	0	20	4	0.5	-31	-55	0.0
COc1cc2nc(C)sc2cc1SC	-0.8	9	5	-3	1	-4	-0.2	nt	nt	nt
O=S(=O)(Nc1cccc(-c2nc3cccnc3s2)c1)c1ccc2c(c1)OCCO2	0.4	-4	7	1	5	-13	-7.4	-15	-29	2.2
O=C(Nc1ccc(Cl)cn1)c1ccc(COCC(F)(F)C(F)F)o1	-0.5	22	-4	-3	-7	-2	1.8	nt	nt	nt
The list continues:
SMILES	Bfl-1 A1 inh	Calb FLC	Beta2AR agonist	Beta cell apopt	T cruzi repl	ALR H2O2 inh	LANA-H2B inh	Ecoli rRNA inh	Ecoli rRNA inh OD600	Ecoli rRNA inh RFP
O=C(COc1ccc2ccccc2c1Br)Nc1ncn[nH]1	-0.6	-17	2	-10	-5	4	2.2	5	5	-6.7
C=CC[C@@H](CC(=O)N[C@@H](CO)Cc1ccccc1)C(=O)N[C@H](COC(=O)[C@H](CC=C)CC(=O)OC(C)(C)C)Cc1ccccc1	3.3	nt	1	-1	nt	0	-1.3	11	8	-5.7
CCN(Cc1ccccc1)C(=O)Cn1c(=O)n(CC(=O)NCc2ccco2)c(=O)c2sccc21	0.2	1	-4	1	4	-2	-1.9	nt	nt	nt
C=CCN1C(=O)C2(C(C#N)=C(N)Oc3n[nH]c(CCC)c32)c2ccccc21 (stereo unspecified)	-0.4	-5	8	-4	-9	-8	0.0	nt	nt	nt
CCOC(=O)C(C(=O)N1CCOCC1)C1CCCCC1 (stereo unspecified)	0.3	6	3	-2	-17	2	2.0	nt	nt	nt
CCCn1c(SCC(=O)N2N=C3/C(=C/c4ccc(OC)cc4)CCCC3C2c2ccc(OC)cc2)n[nH]c1=O (stereo unspecified)	0.2	25	-2	-19	27	-7	0.8	7	-2	14
CCC(=O)N1N=C(c2cccs2)CC1c1ccco1 (stereo unspecified)	-1.2	4	-3	-2	16	0	-3.9	-4	-20	-3.3
CCOC(=O)CN(C(=O)CSc1nnc2c(n1)[nH]c1ccc(F)cc12)c1ccccc1	0.7	-5	-4	3	-11	-3	6.6	nt	nt	nt
Cc1nnsc1C(=O)Nc1ccc(S(=O)(=O)N2CCCCC2)cc1	0.3	-6	4	-3	-14	17	4.0	3	3	-2.6
C=CCn1c(SCC(=O)c2ccc(NS(=O)(=O)c3ccccc3)cc2)nnc1-c1cccs1	0.6	2	0	nt	-5	nt	0.8	nt	nt	nt
CC(C)C(=O)Nc1ccc(NC(=S)NC(=O)c2ccc([N+](=O)[O-])cc2)cc1	-0.1	1	-9	-7	-15	-4	-0.3	nt	nt	nt
CCN(CC)c1ccc(CNc2nnnn2C)cc1	0.2	-5	3	-2	-2	99*	-2.0	13	-1	-1.9
Cc1[nH]c2ccccc2c1C(=O)Cn1c(=O)oc2ccccc21	0.6	30	-2	2	16	-2	5.3	-16	-11	1.8
COCCN(C(=O)CSc1nnc(-c2cccc(OC)c2)n1C)c1c(N)n(Cc2ccccc2)c(=O)[nH]c1=O	0.6	-1	-3	-5	-13	0	-1.9	nt	nt	nt
Cc1cc(C)c(C#N)c(Oc2ccccc2Br)n1	0.1	-10	5	-11	1	22	0.4	-4	-2	0.3
NS(=O)(=O)c1ccc(NC(=O)c2cc(Cl)sc2Cl)cc1	1.2	2	2	nt	-5	0	2.1	-25*	-9.2*	-6.5*
CC(=O)Nc1ccc2nc(N)sc2c1	-0.5	-9	-5	3	-14	nt	2.7	nt	nt	nt
Cc1ccc2nc(-c3ccccc3)c(CN3CCSCC3)n2c1	0.5	-24	-7	3	29	-5	4.0	-9	-8	-1.4
CCOC(=O)N1CCN(C(=O)CSC2=NS(=O)(=O)c3cc(Cl)ccc3N2)CC1	-0.8	7	-4	nt	-6	-20	1.1	-4	-3	-1.4
